LANA-H2B inh = blocks KSHV LANA binding to histone H2A/H2B; Q9QR71; cell-free LANA-H2A/H2B peptide, fluorescence polarization; inhibition, % (test concentration not listed); hit rate 0.6% among 320,000; in the data active = inhibition mostly above about 10%, no sharp cut-off; inactive = mostly below about 6.7%;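 note: stock transfer was 7.5 nL into about 10 µL; 0% = median of vehicle wells and 100% = median of positive control wells; one replicate is shown; the record names a cut of 25% in any replicate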
ALR inh = human ALR oxidase inhibition via reduced H2O2 | hit rate 3.8% among 290,000 | inhibition, % (test concentration not listed) | purified ALR, DTT oxidation, H2O2 HRP-luminol luminescence | P55789 | AID 485317;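 active = mean and each replicate at 75% or more; inconclusive = only one of the two met; inactive = neither met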;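 note: stock transfer was 7.5 nL into about 7.5 µL; 0% = neutral wells and 100% = wells with inactivated enzyme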
Target sequence (P55789 whole entry, looked up): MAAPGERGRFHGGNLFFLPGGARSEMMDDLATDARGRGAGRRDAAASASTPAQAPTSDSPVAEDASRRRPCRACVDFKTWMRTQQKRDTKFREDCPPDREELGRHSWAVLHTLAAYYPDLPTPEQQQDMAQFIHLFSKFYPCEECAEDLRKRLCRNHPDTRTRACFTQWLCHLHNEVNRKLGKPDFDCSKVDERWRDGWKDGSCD
Calb FLC = C. albicans growth modulation with fluconazole | C. albicans CaCi-2 (fluconazole-resistant clinical isolate) + fluconazole, Alamar Blue growth, 48 h | growth inhibition, % (concentration not given with the values) | hit rate 0.57% among 300,000 | AID 1979;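 active = most replicates above 75%; inconclusive = exactly half above 75%; inactive = most below 75%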;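 note: all wells also contain fluconazole at 8 µg/ml as a sub-toxic cotreatment; 0% = median of DMSO wells and 100% = median of geldanamycin control wells; wells of about 8 µL received 7.5 nL stock; the first replicate is given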
T cruzi inh = blocks replication of Trypanosoma cruzi. T. cruzi beta-gal in NIH3T3, luminescence, 90 h. hit rate 1.4% among 300,000. inhibition, % (test concentration not listed);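 active = mean inhibition across valid replicates above about 55%, limit read from the data; inconclusive = mean below that limit but half or more replicates reach it; inactive = mean below it, under half of replicates reach it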;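 note: signal also drops with host cell toxicity which is not excluded here; 0% = plate median of DMSO wells and 100% = zero luminescence signal; higher percent means less beta-gal luminescence so fewer parasites; stock transfer was 50 nL into about 50 µL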
rRNA inh HTS = inhibitors of bacterial rRNA selective over humanized ribosomes | E. coli WT GFP vs humanized-ribosome RFP mutants, fluorescence, 24 h; active compounds read low; DMSO median 0, no signal -100 | GFP signal change (wild-type ribosome), % (concentration not given with the values) | hit rate 1.6% among 350,000 | AID 720706;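 active = significant combined selectivity score with lowered wild-type GFP, culture density cut under 30%, mutant RFP and density less affected; inactive = any of these conditions unmet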; note: one replicate is shown; some compounds called inactive have numbers as strong as hits
Bfl-1 A1 inh = inhibitors of the anti-apoptotic protein A1, read as caspase activation; MEF A1-2A-BIM cells, Caspase-Glo 3/7 luminescence, 3 h; percent of clofoctol response, vehicle zero; caspase activation, % (concentration not given with the values); hit rate 0.066% among 330,000; AID 2462;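 active = over half of replicate activation scores above 10%, or exactly half above 10 with the replicate mean above 10; inconclusive = replicate mean below 10 yet half the replicates above 10; inactive = over half of replicates below 10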;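 note: wells of about 30 µL received 50 nL stock; many hits fall short of the cut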
Beta2AR agonist = activates human beta-2 adrenergic receptor causing internalization; P07550; Am2.2-beta2AR cells, FAP receptor internalization, flow cytometry; reference of the scale not given here; response, % (no concentration beside the values); hit rate 0.43% among 340,000; AID 504454;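 active = response above a set limit, near 3 SD of response in nonfluorescent compounds, cut at about 42% in these data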;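 note: stock transfer was 100 nL into about 11 µL; a reference agonist was the positive control; negative values mostly stem from fluorescent compounds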
Target sequence (P07550 whole entry, looked up): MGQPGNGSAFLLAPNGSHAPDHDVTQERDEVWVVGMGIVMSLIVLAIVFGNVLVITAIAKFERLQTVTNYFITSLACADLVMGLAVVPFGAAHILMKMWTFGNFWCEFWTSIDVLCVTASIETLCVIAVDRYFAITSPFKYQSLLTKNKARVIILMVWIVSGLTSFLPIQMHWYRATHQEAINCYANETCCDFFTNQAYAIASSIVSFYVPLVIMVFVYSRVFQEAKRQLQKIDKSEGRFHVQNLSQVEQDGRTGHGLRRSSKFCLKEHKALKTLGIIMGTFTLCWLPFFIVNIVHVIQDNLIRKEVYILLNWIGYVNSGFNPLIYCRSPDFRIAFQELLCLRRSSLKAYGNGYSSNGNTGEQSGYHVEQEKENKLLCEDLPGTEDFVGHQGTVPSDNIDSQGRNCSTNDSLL
Beta apoptosis = beta cell apoptosis inhibition. INS-1E cytokine-induced death, ATP luminescence, 48 h; percent of positive-control rescue, neutral wells zero. protection from apoptosis, % (test concentration not listed). hit rate 0.8% among 300,000. AID 435005;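 active = all replicates at 75% or more, or half of them and the mean; inconclusive = half reach 75% but not the mean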;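 note: 0% = cytokine-treated negative control wells and 100% = positive control rescue; higher means more ATP so stronger rescue from cytokine killing; wells of about 40 µL received 100 nL stock; the first replicate is given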
rRNA inh HTS OD600 = recorded beside rRNA inh HTS, whose call it bears; OD600 change, %; measured here: OD600 growth;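 optical density of the mix in the first replicate; 0 = DMSO median and -100 = no signal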
rRNA inh HTS RFP = recorded beside rRNA inh HTS, whose call it bears; RFP signal change, %; measured here: RFP humanized mutant strains;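 first replicate; 0 = DMSO median and -100 = no signal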
An asterisk follows results filed as active; ? = inconclusive; · = not tested or not shown. Not all compounds are listed; rates above refer to the full screens.

SMILES	LANA-H2B inh	ALR inh	Calb FLC	T cruzi inh	rRNA inh HTS	rRNA inh HTS OD600	rRNA inh HTS RFP	Bfl-1 A1 inh	Beta2AR agonist	Beta apoptosis
CC1CCCCC1NC(=O)COC(=O)CN1C(=O)c2ccccc2C1=O (configuration not stated)	0.4	3.1	·	·	4.0	11.8	0.9	-0.4	-9.9	-2.9
Cc1ccc(NC(=S)NNC(=O)c2ccc(N3CCOCC3)c([N+](=O)[O-])c2)cc1Cl	2.8	18.0	0.9	1.9	·	·	·	0.2	21.8	-9.1
COc1cccc(CC(=O)OCC(=O)NCCc2ccc(F)cc2)c1	-2.2	-10.5	·	·	-3.1	-9.6	1.5	-0.8	9.1	-6.9
O=C(NCc1cccnc1)c1ccc2c(=O)n(CCCN3CCCC3=O)c(=S)[nH]c2c1	4.4	67.4	11.9	18.4	·	·	·	-0.3	1.5	0.2
CCOCCCNC(=O)c1cc2c(-c3ccc(Cl)cc3)nn(C)c2s1	5.6	38.7	8.8	3.8	-2.4	10.1	18.4	0.2	-13.7	-0.5
COc1cc(Cl)c(C)cc1NC(=O)CC1SC(N2CCOCC2)=NC1=O (configuration not stated)	1.1	·	·	·	6.8	8.4	-2.2	2.0	1.0	-10.3
CCOCCCNC(=O)CCC(=O)NNc1nc2ccccc2c2nc(-c3ccccc3)nn12	·	·	0.5	1.1	4.4	4.7	4.0	1.8	-6.5	0.6
O=C(N/N=C/c1cc(O)ccc1Br)c1cccnc1	-5.1	11.9	2.8	-27.3	-34.2	-53.4	-3.1	0.0	9.4	·
O=C(NC(Cc1ccccc1)C(=O)O)/C(=C\c1ccc([N+](=O)[O-])cc1)NC(=O)c1ccco1 (configuration not stated)	-10.3	-2.7	-1.7	-3.0	11.1	5.3	-0.6	1.1	0.8	-2.9
COc1cc(CN(C(=S)NCC(=O)N2CCCC2)C2CCCC2)cc(OC)c1OC	4.8	·	12.3	-1.5	-5.4	-6.8	1.8	0.0	-8.3	-5.8
COc1ccc(Cl)cc1NC(=O)CN1CCN(C(=O)N2CCOCC2)CC1	-3.1	·	-22.5	2.3	7.0	3.1	2.3	0.2	1.9	-3.2
CN(CC(=O)Nc1c(Cl)cccc1Cl)C(=O)CCNS(=O)(=O)c1ccccc1C(F)(F)F	-1.5	11.8	-4.1	-9.5	8.3	-1.2	0.9	0.3	-6.6	1.3
CCOc1ccc(NS(=O)(=O)c2ccc(C(=O)NCCCN3CCOCC3)cc2)cc1	-0.3	-3.5	-4.2	9.4	2.6	5.3	-1.7	-0.3	-1.3	-1.6
COc1ccc(NS(=O)(=O)c2ccc(/C=C/C(=O)O)cc2)cc1S(=O)(=O)N1CCOCC1	-2.8	-1.6	-0.4	-7.1	-0.7	-0.7	-2.7	0.0	2.2	-3.5
Cc1ccc(N(CC(=O)NC(C)c2ccccc2)S(=O)(=O)c2c(C)n[nH]c2C)cc1 (configuration not stated)	-1.7	-11.1	6.2	1.7	-17.0	-18.6	1.8	0.1	2.8	2.4
COc1cc(/C=N/Nc2snc(SC)c2C#N)ccc1O	7.1	10.4	0.5	-79.9	·	·	·	-1.1	3.2	27.4
O=C(Nc1ccc(-n2cnnn2)cc1)C1CCCN1C(=O)Nc1ccc(Br)cc1 (configuration not stated)	-5.6	0.9	-10.9	-8.4	-0.5	5.8	0.6	0.3	1.6	2.0
COCCCNC(=O)c1ccc2c(=O)n(CC3CCCO3)c(=S)[nH]c2c1 (configuration not stated)	-2.2	86.8*	-3.4	-15.7	·	·	·	0.4	-7.7	·
COc1ccc(OC)c(NC(=O)CSc2nc3scc(C)c3c(=O)[nH]2)c1	-1.8	·	1.5	0.1	-0.1	-4.1	-0.7	-0.1	2.2	-4.0
Cc1cc(=O)n2nc(-c3ccc(C(F)(F)F)cc3)sc2n1	0.5	-2.7	-1.3	7.8	·	·	·	-2.6	-19.2	-0.8
O=C1C2C3C=CC(C3)C2C(=O)N1c1ccccc1 (configuration not stated)	5.9	-0.8	0.6	3.8	·	·	·	-0.7	-0.4	-5.2
Cc1cc(C)c(-c2c(O)c3cccc4c3n(c2=O)CCC4)c(C)c1	0.8	-4.6	?	17.2	·	·	·	0.1	-6.6	-2.6
O=[N+]([O-])c1ccccc1NC(=S)N/N=C/c1ccc(O)c(O)c1	6.5	70.3	5.2	-13.1	-8.4	-13.5	-1.1	-0.9	8.7	-2.4
O=C(Cn1nnc(-c2ccc(F)cc2)n1)Nc1ccc2c(c1)OCCO2	1.1	-2.7	-23.6	3.3	17.9	11.7	-2.9	0.2	0.0	-2.8
Cc1ccc(NC(=O)CN(C)C(=O)COc2cccc3ccc(C)nc23)cc1	6.3	-4.6	·	·	15.2	2.7	-8.4	1.3	-1.6	-0.8
Cc1ccc(C(C(=O)NCC2CCCO2)N(Cc2ccccc2F)C(=O)Cn2nnc(-c3cccs3)n2)cc1 (configuration not stated)	1.7	·	-8.5	10.0	·	·	·	-0.6	-17.3	-8.3
Oc1ccc(C23CCCC2C2(CCCC2)c2ccc(O)cc2O3)c(O)c1 (configuration not stated)	-5.6	89.9*	·	·	-58.6	-81.4	-19.0	0.3	11.4	5.0
S=c1[nH]nc(-c2ccc(Cl)cc2)n1/N=C/C=C/c1ccco1	0.3	98.7*	46.5	-33.4	-8.4	-1.7	2.3	-0.5	27.7	0.7
FC(F)(F)c1cc(Oc2ccccc2)nc(-c2ccccn2)n1	-2.2	-11.1	-1.7	-1.4	·	·	·	-0.4	-4.2	6.3
O=C(Cn1ncn2cccc2c1=O)N1CCCCC1	-1.2	-1.6	11.5	-4.9	·	·	·	-0.1	1.2	3.3
CSc1nc2[nH]c3c(c2c2ncnn12)CCCC3	-2.6	·	-1.1	-6.2	·	·	·	-0.2	4.8	21.6
CC(=O)c1ccc(NC(=O)CSc2nc(N3CCOCC3)nc(N3CCOCC3)n2)cc1	-0.5	-20.4	1.9	1.5	11.8	10.7	1.6	-1.2	-3.4	4.7
NS(=O)(=O)c1ccc(CCNC(=O)C(=O)NCC2OCCN2S(=O)(=O)c2cccs2)cc1 (configuration not stated)	3.5	9.8	7.8	1.5	0.5	8.7	1.6	-0.4	-5.0	-1.5
O=C(CCc1c[nH]c2ccccc12)N/N=C/c1ccc2c(c1)OCO2	2.7	1.9	-9.4	10.6	8.8	13.8	8.7	0.3	8.5	-8.0
CN1CCC(NC(=S)NC2CC2)CC1	3.0	-1.3	1.5	-9.2	27.8	30.1	2.3	-0.2	-4.0	1.9
COc1nc2ccc(C)cc2cc1-c1noc(-c2ccccc2)n1	1.2	-2.7	-27.9	-3.2	·	·	·	0.1	8.2	0.7
CCCC(C)NC(=O)c1ccc(OCc2ccc(Cl)cc2)c(OC)c1 (configuration not stated)	·	0.8	-3.3	8.5	-0.1	-2.9	-14.4	-0.8	1.6	3.6
CCOC(=O)c1c(NC(=O)CSc2nnc(C)s2)sc2c1CCC(C)C2 (configuration not stated)	-2.7	-9.2	3.1	16.1	·	·	·	0.3	-5.0	3.0
CC(C)Cc1nnc(NC(=O)CCC(=O)N2CCN(c3ccc(F)cc3)CC2)s1	4.6	2.5	-2.6	2.5	-0.5	3.7	-1.9	0.3	-3.2	-3.7
O=C(O)Cn1nnc2ccccc21	-5.9	-4.1	2.9	-8.9	11.6	1.3	-0.7	0.7	3.5	-0.8
O=c1cc(-c2ccccc2)oc2cc(O)cc(O)c12	5.2	-0.9	12.8	2.9	·	·	·	0.6	-27.7	-4.5
CSCC(=O)NC1CCCc2c1cnn2-c1ccc(C)c(C)c1 (configuration not stated)	-1.4	·	5.7	-4.2	5.5	0.3	1.3	-1.1	-5.4	-2.4
CC(=O)Nc1cnc(NC(=O)c2cccc(F)c2)cc1C	0.7	-6.6	-6.3	-8.8	·	·	·	-1.4	13.2	-2.5
COc1cccc(CCNC(=O)c2ccc(OC)c(OC3CCN(C(C)C)CC3)c2)c1	-0.3	2.5	2.9	23.8	7.1	8.9	0.6	2.6	2.0	·
CCc1ccc(NC(=O)C(=O)NCC2CCCN2S(=O)(=O)c2ccccc2)cc1 (configuration not stated)	0.7	·	-1.2	7.7	-18.9	-23.8	-1.7	0.4	7.5	·
CCc1nnc(NC(=O)c2cc(Cl)ccn2)s1	-1.3	39.2	?	44.2	-28.6	-56.1	-9.7	-1.1	-16.4	·
COc1cc(NC(=O)C2CCN(S(=O)(=O)c3cccnc3)CC2)cc(OC)c1OC	0.2	-26.0	11.4	-5.5	·	·	·	0.4	-1.6	-0.3
COc1ccc(/C=N/N=C/c2c[nH]c(=O)c(C#N)c2Nc2ccccc2)cc1	-3.9	-4.2	-9.0	-6.2	·	·	·	0.4	2.7	-4.2
CCOC(=O)C1(CCCc2ccccc2)CCN(C(=O)c2cncs2)CC1	4.3	-5.6	16.7	5.8	-2.3	1.3	0.9	0.8	-5.5	3.0
CC(C)CNC(=S)N1CCC(c2nc(-c3ccc(F)cc3)no2)CC1	-1.7	·	-6.2	·	-25.6*	-13.3*	2.2*	-0.2	-1.3	9.7
O=S(=O)(c1ccc(Cl)cc1)N1CCC(n2cccc2)CC1	0.4	3.0	-5.4	-5.8	2.2	8.7	4.6	0.1	-3.6	-3.0
Cc1ccc(N(C(=O)c2snc(C(N)=O)c2N)C(C(=O)NCC2CCCO2)c2ccc3ncccc3c2)cc1 (configuration not stated)	·	·	8.6	5.5	-5.1	4.6	1.2	·	-10.9	·
Cc1ccc(N(CC(O)CN2CCOCC2)S(=O)(=O)c2ccc([N+](=O)[O-])cc2)cc1 (configuration not stated)	8.6	-112.2	-0.7	-2.7	-4.2	2.3	-0.1	-0.7	-6.0	2.4
COc1ccc(Cl)cc1NC(=O)c1cc(-c2cc(C)ccc2O)n[nH]1	2.4	-0.5	1.6	-11.7	-13.5	7.1	9.8	-0.3	-0.6	-3.6
COc1ccc(NC(=O)CN(C)C(=O)C2CSC3(C)CCC(=O)N23)cc1 (configuration not stated)	5.1	-5.2	·	·	10.7	14.1	-0.5	-0.9	1.1	1.1
CC(C)(C)CC(C)(C)NCC(=O)Nc1c2c(nc3ccccc13)CCC2	5.1	-6.4	-2.8	-4.6	4.7	-0.6	0.4	0.5	-5.9	-3.3
CCOC(=O)c1c(S(=O)(=O)NCCc2ccccc2)c(C)n(C)c1C	1.3	0.2	7.2	7.3	-4.1	-2.9	1.8	0.4	-1.1	·
CN(c1ccccc1)S(=O)(=O)c1ccc(Cl)c(C(=O)OCC(N)=O)c1	-3.8	1.8	-0.4	-8.4	-0.3	-3.3	-1.1	0.1	3.5	4.4
Cc1ccc(-c2ccc(=O)n(CCC(=O)NCc3ccccn3)n2)cc1	6.7	0.0	1.1	-5.0	·	·	·	-0.6	-12.1	-2.7
